# HSV replic up: enhancers of HSV replication in host cells, fold increase, host cell viability | 220,000 tested, 0.005% active | AID 1956, 2009 | HSV replication augmentation in cells | maximum fold increase;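 active means peak rise of 1.5-fold or more in the series; tested in PC3 cells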;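 further: first round at 10 µM; read as green reporter fluorescence; hits show the peak of a series up to 25 µM; 1 = signal of infected wells without compound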
# PKD1 inh: inhibitors of human PKD1 kinase, biochemical, fluorescence polarization | PKD1 kinase fluorescence polarization assay | inhibition, %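 (about 10 µM by stock and volumes)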 | 200,000 tested, 0.056% active | Serine/threonine-protein kinase D1 (Homo sapiens), Q15139;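 active means inhibition of 50% or more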;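 further: controls were vehicle for no effect and a reference inhibitor for full effect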
# GALR2 ag: GALR2 receptor agonists, primary screen, cell-based | activation, %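 (tested at 5 µM)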 | Galanin receptor type 2 (Homo sapiens), O43603 | 140,000 tested, 0.48% active | GALR2-expressing cells, agonist activation read-out;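 active means above mean plus 3 SD of all compounds, about 5% in these data, not always enough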;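 further: 0% = vehicle buffer wells and 100% = reference agonist at full effect; tested in CHO reporter cells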
# Target sequence (O43603 whole entry, looked up): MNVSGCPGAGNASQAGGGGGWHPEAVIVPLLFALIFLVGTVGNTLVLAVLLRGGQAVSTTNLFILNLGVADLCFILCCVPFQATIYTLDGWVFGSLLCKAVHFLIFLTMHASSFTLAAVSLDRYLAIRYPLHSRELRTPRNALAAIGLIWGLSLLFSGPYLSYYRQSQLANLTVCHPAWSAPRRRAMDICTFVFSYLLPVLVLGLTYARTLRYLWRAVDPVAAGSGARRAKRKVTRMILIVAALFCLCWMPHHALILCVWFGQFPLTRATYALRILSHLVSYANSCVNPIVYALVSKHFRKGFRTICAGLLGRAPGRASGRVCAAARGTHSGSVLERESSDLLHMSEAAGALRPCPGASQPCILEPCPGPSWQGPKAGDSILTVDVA
# Insulin prom inh: inhibitors of insulin promoter-driven GFP, primary screen, imaging, TRM-6 cells (human fetal islet line), eGFP reporter, cell count | 130,000 tested, 0.9% active | AID 1273, 2008 | inhibition, % at 2 µM | reporter expression induced with tamoxifen;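 active means inhibition above the mean plus 3 SD, with well images judged a real hit on visual review, cut at about 60% in these data, passing the limit was not always enough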
# RGS16-Gao: modulators of RGS16 binding to Galphao, primary screen, biochemical, human proteins, multiplexed bead flow cytometry | 220,000 tested, 0.38% active | bead-based flow cytometry RGS16-Galphao binding, fluorescence; actives lie on both sides | binding response (% of control), % at 10 µM | Regulator of G-protein signaling 16 (Homo sapiens) + Guanine nucleotide-binding protein …;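 active means below 25% or above 175%, edge rows of some plates excepted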;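 further: Galphao activated by GDP with aluminum fluoride before binding; 100% = wells without compound and 0% = beads without RGS; some results beyond the cut were filed as inactive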
# Target sequence (O15492 whole entry, looked up): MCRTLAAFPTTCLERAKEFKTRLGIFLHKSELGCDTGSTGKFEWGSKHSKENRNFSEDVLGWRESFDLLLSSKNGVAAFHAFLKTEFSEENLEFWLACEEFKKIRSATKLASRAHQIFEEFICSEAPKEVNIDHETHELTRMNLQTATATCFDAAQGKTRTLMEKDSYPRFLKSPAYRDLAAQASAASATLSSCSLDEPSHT
# Target sequence (P09471 whole entry, looked up): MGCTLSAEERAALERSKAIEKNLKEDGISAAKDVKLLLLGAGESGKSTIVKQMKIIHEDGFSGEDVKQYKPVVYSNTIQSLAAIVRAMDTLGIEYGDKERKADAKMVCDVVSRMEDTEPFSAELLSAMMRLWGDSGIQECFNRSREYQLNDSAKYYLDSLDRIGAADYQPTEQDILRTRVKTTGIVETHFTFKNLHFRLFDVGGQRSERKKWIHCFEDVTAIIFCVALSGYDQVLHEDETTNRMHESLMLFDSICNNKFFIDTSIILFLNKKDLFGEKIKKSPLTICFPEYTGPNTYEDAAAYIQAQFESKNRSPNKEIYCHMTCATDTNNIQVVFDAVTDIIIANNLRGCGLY
# Insulin prom inh cell count: further read-out of Insulin prom inh, marked with its call; normalized cell count, %; measured here: cell count, toxicity; reference of the scale not given here;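 cells exposed to compound for 48 h; stained nuclei by imaging scaled within each plate; lower means fewer cells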
# HSV replic up primary fold: recorded beside HSV replic up, whose call it bears; fold increase; compound at 10 µM; measured here: primary screen fold increase 10 uM; tested in PC3 cells;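 GFP signal in the first replicate; 1 = infected wells without compound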
# * hit, by the source's call; i = inactive; x = not tested or not shown. Not a hit list; 1.3% or so of the library scored in one or more.
SMILES,HSV replic up,HSV replic up primary fold,PKD1 inh,GALR2 ag,Insulin prom inh,Insulin prom inh cell count,RGS16-Gao
CC1CN/C(=C\C(=O)c2ccc(Cl)cc2)C(=O)N1 (stereo not given),i,1.1,-8,-2.4,70,116,111
CCCCN1C(=O)/C(=C(/C#N)C(N)=O)c2ccccc21,i,1,5,-0.7,x,x,98
O=C(c1ccc(N2CCNCC2)cc1)c1cccnc1,i,0.95,-2,-1.0,0,121,101
CC(=O)c1cccc(NC(=O)C2CCN(S(=O)(=O)c3cccs3)CC2)c1,x,x,5,-2.8,23,120,134
CC(=O)Nc1ccc(NC(=O)/C(Cl)=C/c2ccccc2)cc1,i,0.95,10,-0.3,-7,48,101
C/C(=N\N=C1\NC(=O)C(CC(=O)Nc2ccc(C)c(Cl)c2)S1)C(C)C (stereo not given),i,0.85,-6,x,x,x,99
S=C(Nc1ccccc1)N1CCN(C/C=C/c2ccccc2)CC1,i,0.97,-11,x,x,x,154
O=C(O)/C=C1\NC(=O)c2ccccc21,i,0.89,5,-1.4,-36,74,102
CCOc1ncccc1C(=O)N1CCN(C(c2ccccc2)c2ccccc2)CC1,i,0.91,-2,x,-38,83,105
O=C(c1ccc(Cl)c(S(=O)(=O)Nc2ccc(F)cc2)c1)N1CCN(c2ccccn2)CC1,i,0.99,1,-3.1,-9,105,104
O=c1[nH]c(N2CCc3ccccc3C2)nc2c1CCC2,i,0.68,-7,0.1,x,x,99
Cc1nn(C)c(Cl)c1CN1CCC(CO)(CCOc2ccccc2)CC1,i,1,-2,x,9,138,96
Cc1ccc(C(=O)NC2CCc3ccccc3C2=O)cc1 (stereo not given),i,1,-8,x,18,97,90
Cc1ccc(S(=O)(=O)N(Cc2ccccc2)c2ccccc2C(=O)Nc2ccccc2C(=O)NCc2ccco2)cc1,i,1,-2,0.7,0,116,105
N#Cc1nc(Cc2cccc3ccccc23)oc1N1CCCCC1,i,0.83,-4,-0.2,x,x,102
O=C(O)Cc1nc2nc3c(c(=O)n2[nH]1)CCCC3,i,0.85,-15,-0.2,6,126,117
COc1ccc(C(=O)C2CCCN(S(=O)(=O)C(C)C)C2)c(C)c1 (stereo not given),i,0.95,11,x,x,x,111
Cc1ccc2occ(-c3nn[nH]n3)c(=O)c2c1,i,1.1,-6,0.3,0,109,127
Cc1n[nH]c(C)c1S(=O)(=O)N1CCC(C(=O)N2CCn3c2nc2ccccc23)CC1,i,1.1,0,-1.2,52,103,104
O=C(/C(=N\Nc1ccc(Br)cc1)Sc1nnnn1-c1ccccc1)c1ccccc1,i,0.94,3,-0.1,47,125,102
CC(C)(C)CC(C)(C)NC(=O)c1ccc2snnc2c1,i,0.89,x,x,x,x,107
O=C(O)C1CSCN1S(=O)(=O)c1cccc2nsnc12 (stereo not given),i,0.6,x,x,x,x,100
COc1ccc(N(CC(=O)NC2CCCC2)C(=O)Cn2nnc(-c3ccc(F)cc3)n2)cc1OC,i,0.87,-24,-2.5,-38,36,93
COc1ccc(S(=O)(=O)Cc2ccc(C(=O)NC3CCCC3)o2)cc1,i,0.88,-2,-3.8,x,x,103
CCOc1ccc(CCNC(=O)CCCN2C(=O)c3ccccc3C2=O)cc1OCC,i,1,-4,-1.7,15,83,103
COC(=O)c1[nH]c2ccc(Cl)cc2c1NC(=O)Oc1ccccc1,i,1.1,-8,-0.3,5,63,100
O=C(c1ccccc1)N1CCN(Cc2c[nH]c3ccccc23)CC1,i,0.94,-7,-2.0,50,121,102
C=CCn1c(CCCNC(=O)C(C)(C)C)nc2ccccc21,i,0.92,-10,-1.2,x,x,101
CNC(=S)N(CCc1cccc(C)c1)Cc1cc2cc(OC)c(OC)cc2[nH]c1=O,i,0.98,-11,0.0,37,112,104
O=C(O)/C=C/C(=O)NCC1CCC(CNC(=O)/C=C/C(=O)O)CC1 (stereo not given),i,0.95,x,x,x,x,94
CC(=O)c1cccc(NC(=O)N2CCCC2C(=O)Nc2c(C)cccc2C)c1 (stereo not given),i,1,9,-1.2,36,54,103
O=C(OCC(=O)N1CCN(c2ccccc2)CC1)c1ccccn1,i,0.88,-5,0.0,0,120,103
OC(CNCCC1C=Nc2ccccc21)Cn1c2ccc(Cl)cc2c2cc(Cl)ccc21 (stereo not given),i,0.52,20,3.7,20,143,112
COCCNC(=O)C1CCC(Cn2c(=S)[nH]c3ccccc3c2=O)CC1 (stereo not given),i,0.9,-11,-0.8,12,74,100
S=c1[nH]nc(-c2cccnc2)o1,i,0.78,5,-1.3,x,x,102
Cc1ccc(S(=O)(=O)Nc2ccc(NC(=O)c3cccs3)cc2)cc1,i,0.91,-12,x,x,x,100
CCOc1ccc(NC(=O)CSc2nnc(N)s2)c([N+](=O)[O-])c1,i,0.98,-9,x,57,119,102
COc1ccc(CCN2C(=O)C3C4CC(C5C(C(=O)NN)=NOC45)C3C2=O)cc1OC (stereo not given),i,0.84,5,-0.9,3,168,101
Cc1cc(C)nc(Nc2ncc(O)n2-c2ccc(C)c(Cl)c2)n1,i,0.9,-3,-2.0,10,62,102
Cc1cccc(-n2c(C)nc3cc(C(=O)NCc4ccc5c(c4)OCO5)ccc32)c1,i,0.91,-13,-0.4,38,78,99
O=[N+]([O-])c1nn(-c2ccccc2)[n+]([O-])c1N1CCN(c2ccccc2)CC1,i,0.9,1,x,x,x,110
COc1ccc(NC(=O)CCCC(=O)O)cc1Cl,i,1.1,-2,x,x,x,100
Cc1occc1C(=O)Nc1ccc2c(c1)OCO2,i,0.91,3,-0.5,-347,96,105
CCC(=O)N/N=C(\C)CC(=O)Nc1ccc(F)cc1,i,0.98,-7,x,3,92,107
CN1CCN(C(=O)CCN2C(=O)/C(=C/c3ccccc3Cl)SC2=S)CC1,i,0.8,-3,x,x,x,101
Cc1oc(C(=O)Nc2ccc(C(=O)O)cc2)cc1COc1ccccc1,i,0.83,-6,2.2,-42,103,109
Cc1ncc([N+](=O)[O-])n1Cc1ccc(Cl)cc1,i,0.96,0,x,-17,99,102
Cc1cc(=O)[nH]c(Nc2ccc(C(=O)OC(C)C)cc2)n1,i,0.9,1,-1.3,x,x,102
Cc1ccc(-c2nnn(CC(=O)N(c3ccccc3F)C(CC(C)C)C(=O)NCC3CCCO3)n2)cc1 (stereo not given),i,0.78,5,-1.7,-80,76,103
O=C(NCCC(c1ccccc1)c1ccccc1)c1cccs1,i,1,-10,-0.5,x,x,110
O=C(Nc1ccc2c(c1)OCO2)c1cc2nc(C3CC3)cc(C(F)(F)F)n2n1,i,1.1,-1,-1.6,x,x,85
Cc1cccnc1NC(=S)Nc1ccc(F)cc1F,i,1.1,0,x,x,x,94
Cc1ccc(C)c(NS(=O)(=O)c2ccc(NC(=O)c3ccco3)cc2)c1,i,0.93,-2,-1.6,-4,53,100
CC(=O)Nc1ccc(NC(=O)c2ccccc2F)cc1,i,0.97,-3,0.2,-13,52,104
C=CCn1c(SCc2ccccc2)nnc1-c1cccnc1,i,0.84,-9,0.9,0,210,95
COc1ccc(/C=C/C(=O)NC2CCCCCCC2)cc1S(=O)(=O)N1CCOCC1,i,0.85,-8,0.3,-37,86,110
COc1cc(C(=O)NCC(=O)N/N=C/c2cccc(OC(=O)c3ccco3)c2)cc(OC)c1OC,i,1,-3,x,26,140,104
CCOC(=O)CCCNC(=O)COC(=O)c1ccc(O)cc1,i,1,-9,-2.0,-16,135,107
O=C(Nc1ccc(F)cc1)c1sc(Cl)nc1-c1ccccc1,i,0.78,-11,0.1,7,104,101
COc1ccc(CCNC(=O)CSCc2n[nH]c(=O)[nH]2)cc1OC,i,1,-5,-1.7,-32,53,99
# Other structures follow:
SMILES,HSV replic up,HSV replic up primary fold,PKD1 inh,GALR2 ag,Insulin prom inh,Insulin prom inh cell count,RGS16-Gao
CC(C)(O)C#Cc1ncc(C(F)(F)F)cc1Cl,i,1.1,-3,x,x,x,99
Cc1cc(/C=C2/NC(=O)N(c3ccccc3)C2=O)c(C)n1C(C)C,i,0.88,9,0.2,x,x,101
Cc1ccc(NC(=S)N(Cc2ccccc2)C(C)C)cc1,i,0.96,x,x,x,x,37
CCS(=O)(=O)c1nc(S(=O)(=O)c2ccc(Cl)cc2)c(N2CCc3ccccc3C2)s1,i,0.59,6,-0.3,13,121,103
CCOc1nc(-c2ccccc2)ccc1-c1noc(-c2ccncc2)n1,i,0.91,-6,-2.7,x,x,86
O=C(Cc1ccc(S(=O)(=O)N2CCCC2)s1)N1CCN(c2ccc(F)cc2)CC1,i,1.1,-6,x,-218,59,100
CN1CCN(C(=O)c2cn(C)c3ccc(S(=O)(=O)N(C)C4CCCCC4)cc3c2=O)CC1,i,0.99,9,-2.3,x,x,157
COc1cccc(N=Nc2c(=O)[nH]n3c(=O)c4c([nH]c23)CCC4)c1,i,0.92,-4,-1.9,0,128,41
COc1cc(C2C(C#N)=C(N)Oc3cc(N)ccc32)cc(OC)c1OC (stereo not given),i,0.69,-12,-2.7,-23,8,104
O=C(CN(C1CCCCC1)C1CCCCC1)N1CCc2ccccc2C1,i,1.1,-1,-1.0,8,123,112
Cc1sc2ncnc(N/N=C/c3ccc(O)cc3)c2c1C,i,1.2,3,-0.8,x,x,107
CC(C)(C)C(=O)COC(=O)c1cc2ccccc2cc1O,i,1,0,-0.9,3,109,105
O=C(COC(=O)C1=Cc2ccccc2OC1)NC1CCCC1,i,0.96,-3,-3.1,-22,93,99
O=C1OC(Nc2ccc(Cl)cn2)c2ccccc21 (stereo not given),i,1,-4,-0.9,0,125,99
Cc1cc(F)c(F)c(C(=O)N2CCOCC2)c1,i,0.94,8,-1.2,-100,92,94
O=C(CN1C(=O)C2(OCCCO2)c2ccccc21)NCc1ccccc1,i,0.9,-3,-1.3,-45,84,106
O=C(CCn1cnc(-c2ccccc2)c1-c1ccccc1)N/N=C/c1ccccc1O,i,0.82,4,-0.7,0,57,145
O=C1CSC(c2cccc([N+](=O)[O-])c2)N1c1ccc(O)cc1 (stereo not given),i,0.98,-3,x,x,x,99
O=C(NC1CCC(O)CC1)c1ccc(S(=O)(=O)NCc2ccco2)cc1 (stereo not given),i,0.95,1,-1.0,7,137,101
CN(C(=O)c1ccc(OC2CCN(S(=O)(=O)N(C)C)CC2)cc1)C1CCCCC1,i,0.86,-8,x,x,x,105
Cc1ccc(Nc2nc(N)nc(CC#N)n2)cc1,i,0.89,-6,1.3,-35,77,88
COc1ccc(NCc2nnc(SCC(=O)c3ccc(OC)cc3)n2C)cc1,i,1,-2,-0.4,12,102,108
CN=C1C([N+](=O)[O-])=CC=C2C1=NC1(CCCCC1)N2O,i,1.1,-5,0.9,28,165,95
Cc1ccc(CCNC(=O)C2CCCN(S(=O)(=O)c3c(C)nn(C)c3C)C2)cc1 (stereo not given),i,1,-1,-2.2,x,x,101
CCn1cc(/C=N\NC(=O)c2ccc(F)cc2)cn1,i,0.99,-10,-0.9,-67,62,59
Cn1ccnc1C1CCCCN1C(=O)c1cc(COc2ccc(F)cc2Cl)on1 (stereo not given),i,1,-3,x,x,x,105
Nc1nc(-c2cccnc2)nn1C(=O)c1ccc(F)cc1,i,0.92,-1,x,x,x,98

# Screens deposited in PubChem BioAssay by several laboratories.
